DUX4 inh – blocks DUX4-driven transcriptional activation | 293T-iDUX4 ZSCAN4-Gaussia luciferase reporter, 24 h; active compounds read low | AID 1224904 | activity change, negative = inhibition, % (test concentration not listed) | 37,000 compounds, 0.8% hits;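 active = -10% or lower and over 25 points stronger than a control reporter; inconclusive = -10% or lower with a smaller gap; inactive = above -10%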;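 also: 0% = median of neutral control wells and -100% = median of positive control wells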
DUX4 inh difference – second read-out of DUX4 inh, no call of its own (marks repeat the call); Gaussia minus Italica difference, %; measured here: selective DUX4 reporter inhibition;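 worked out from the two reporters; negative = selective loss of the DUX4 reporter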
DUX4 inh control – recorded beside DUX4 inh, whose call it bears; activity change, negative = inhibition, %; measured here: Italica tet-on control reporter;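 0 = neutral control and -100 = positive control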
The depositor's hits bear a star; ? = inconclusive; . = no result given. Only part of the results is shown (hit frequency here may not be typical).

item	DUX4 inh	DUX4 inh difference	DUX4 inh control	structure
1	-7	-2	-5.7	CCCN1[C@@H]2c3cccc(=O)n3C[C@H]1[C@H](CO)[C@H]2C(=O)N[C@H](C)c1ccccc1
2	-8	7	-15	O=C(Nc1ccccc1)N1C[C@@H]2[C@H](c3ccccc31)[C@@H](CO)N2Cc1ccccc1
3	0	2	-1.9	O=C(Nc1ccc(Cl)cc1)N1C[C@@H]2[C@H](c3ccccc31)[C@H](CO)N2C(=O)C1CC1
4	-3	3	-6.0	O=C(C[C@@H]1CC[C@H]2[C@@H](COC[C@@H](O)CN2Cc2nccs2)O1)N1CCC(Cc2ccccc2)CC1
5	2	-2	3.8	N#C[C@@H]1[C@H](c2ccccc2)[C@H](CO)N1C(=O)C1CCCC1
6	-42*	-37*	-5.9*	C[C@H](CO)N1C[C@H](C)[C@@H](CN(C)Cc2cccc(C(F)(F)F)c2)OCc2ccccc2-c2ccccc2C1=O
7	7	6	0.6	CCS(=O)(=O)N1CC2(C1)[C@H](c1ccccc1)[C@@H](CO)N2C(=O)C1CCC1
8	1	0	1.0	CO[C@@H](CN(C)Cc1cc(F)ccc1F)[C@@H](C)CN([C@@H](C)CO)S(=O)(=O)c1ccc(C)cc1
9	-4	1	-5.7	O=C(C1CCOCC1)N1C[C@@H]2[C@H](c3ccccc31)[C@H](CO)N2Cc1ccccc1F
10	4	6	-2.0	Cn1cnc(CCNC(=O)C[C@H]2CC[C@H]3[C@@H](COC[C@H](O)CN3C(=O)C3CCCC3)O2)c1
11	16	10	6.1	CN(C)CC(=O)N1[C@H](CO)[C@H](c2ccccc2)C12CN(C(=O)C1CCCC1)C2
12	6	4	1.9	Cc1ccc(S(=O)(=O)N[C@@H]2C=C[C@@H](CC(=O)NCCCN(C)C)O[C@H]2CO)cc1
13	4	12	-7.7	O=C(C1CCCCC1)N1CC(=O)N2[C@H](CO)[C@@H](c3ccc(-c4ccccc4F)cc3)[C@H]2C1
14	-1	-6	5.8	Cc1ccc(S(=O)(=O)N2C[C@@H](O)COC[C@H]3O[C@@H](CC(=O)NCCN4CCCCC4)CC[C@@H]32)cc1
15	-1	-1	0.1	COc1ccc(NC(=O)N(C)C[C@H]2Oc3c(NC(=O)CCCCCC(=O)Nc4ccccc4N)cccc3C(=O)N([C@H](C)CO)C[C@@H]2C)cc1
16	1	1	-0.2	CC(=O)N1CC2(C1)[C@H](c1ccc(-c3ccccc3C)cc1)[C@H](CO)N2C(=O)CC1CC1
17	7	12	-5.5	CN(C)C(=O)c1cccc(-c2ccc([C@@H]3[C@@H](CO)N4CCCCN(CC5CCOCC5)C[C@@H]34)cc2)c1
18	-9	-11	1.8	CCC(=O)N1CC2(C1)[C@H](c1ccccc1)[C@@H](CO)N2Cc1ccccc1OC
19	0	-2	2.4	CN1CCN(C(=O)C[C@@H]2C[C@@H]3c4cc(NS(C)(=O)=O)ccc4O[C@@H]3[C@H](CO)O2)CC1
20	-1	-4	2.4	COc1cccc(-c2cn(CC[C@H]3CC[C@H](NC(=O)CN(C)C)[C@@H](CO)O3)nn2)c1

16 entries from above, arranged by SMILES length, descending:
item	DUX4 inh	DUX4 inh difference	DUX4 inh control	structure
15	-1	-1	0.1	COc1ccc(NC(=O)N(C)C[C@H]2Oc3c(NC(=O)CCCCCC(=O)Nc4ccccc4N)cccc3C(=O)N([C@H](C)CO)C[C@@H]2C)cc1
14	-1	-6	5.8	Cc1ccc(S(=O)(=O)N2C[C@@H](O)COC[C@H]3O[C@@H](CC(=O)NCCN4CCCCC4)CC[C@@H]32)cc1
6	-42*	-37*	-5.9*	C[C@H](CO)N1C[C@H](C)[C@@H](CN(C)Cc2cccc(C(F)(F)F)c2)OCc2ccccc2-c2ccccc2C1=O
17	7	12	-5.5	CN(C)C(=O)c1cccc(-c2ccc([C@@H]3[C@@H](CO)N4CCCCN(CC5CCOCC5)C[C@@H]34)cc2)c1
4	-3	3	-6.0	O=C(C[C@@H]1CC[C@H]2[C@@H](COC[C@@H](O)CN2Cc2nccs2)O1)N1CCC(Cc2ccccc2)CC1
19	0	-2	2.4	CN1CCN(C(=O)C[C@@H]2C[C@@H]3c4cc(NS(C)(=O)=O)ccc4O[C@@H]3[C@H](CO)O2)CC1
10	4	6	-2.0	Cn1cnc(CCNC(=O)C[C@H]2CC[C@H]3[C@@H](COC[C@H](O)CN3C(=O)C3CCCC3)O2)c1
13	4	12	-7.7	O=C(C1CCCCC1)N1CC(=O)N2[C@H](CO)[C@@H](c3ccc(-c4ccccc4F)cc3)[C@H]2C1
3	0	2	-1.9	O=C(Nc1ccc(Cl)cc1)N1C[C@@H]2[C@H](c3ccccc31)[C@H](CO)N2C(=O)C1CC1
16	1	1	-0.2	CC(=O)N1CC2(C1)[C@H](c1ccc(-c3ccccc3C)cc1)[C@H](CO)N2C(=O)CC1CC1
20	-1	-4	2.4	COc1cccc(-c2cn(CC[C@H]3CC[C@H](NC(=O)CN(C)C)[C@@H](CO)O3)nn2)c1
2	-8	7	-15	O=C(Nc1ccccc1)N1C[C@@H]2[C@H](c3ccccc31)[C@@H](CO)N2Cc1ccccc1
9	-4	1	-5.7	O=C(C1CCOCC1)N1C[C@@H]2[C@H](c3ccccc31)[C@H](CO)N2Cc1ccccc1F
11	16	10	6.1	CN(C)CC(=O)N1[C@H](CO)[C@H](c2ccccc2)C12CN(C(=O)C1CCCC1)C2
18	-9	-11	1.8	CCC(=O)N1CC2(C1)[C@H](c1ccccc1)[C@@H](CO)N2Cc1ccccc1OC
5	2	-2	3.8	N#C[C@@H]1[C@H](c2ccccc2)[C@H](CO)N1C(=O)C1CCCC1

New compounds follow:
item	DUX4 inh	DUX4 inh difference	DUX4 inh control	structure
21	-2	-3	1.6	CC=Cc1ccc2n(c1=O)C[C@@H]1[C@@H](CO)[C@H](C(=O)N3CCc4ccccc4C3)[C@H]2N1CC (mixture of isomers)
22	-7	-8	1.2	O=C(C[C@@H]1C[C@@H]2c3cc(NC(=O)Nc4ccccc4F)ccc3O[C@@H]2[C@H](CO)O1)NCCc1ccccc1
23	3	4	-0.7	CCC(=O)N1C[C@H](C)[C@H](OC)CN(C)C(=O)c2cc(NC(=O)C3CC3)ccc2OC[C@@H]1C
24	5	9	-4.3	O=C(c1ccc2c(c1)OCO2)N1CC[C@@H]2[C@@H](CO)Nc3ccc(C#Cc4ccccc4)cc3[C@@H]21
25	1	3	-1.9	CC=Cc1ccc2n(c1=O)C[C@@H]1[C@@H](CO)[C@H](C(=O)NCc3ccccc3F)N[C@H]21 (mixture of isomers)
26	0	2	-1.6	COC(=O)N(C)C[C@@H]1OCc2cn(nn2)CCCC(=O)N([C@H](C)CO)C[C@@H]1C
27	6	9	-3.5	O=C(Cc1ccccn1)N1CC(=O)N2[C@H](CO)[C@@H](c3ccc(-c4ccc(F)cc4)cc3)[C@H]2C1
28	3	3	0.0	CCN1[C@@H]2c3ccc(-c4cccc(OC)c4)c(=O)n3C[C@@H]2[C@@H](CO)[C@@H]1C(=O)N(C)C
29	-2	-4	2.3	C[C@@H]1CN([C@@H](C)CO)S(=O)(=O)c2ccc(C3=CCCC3)cc2O[C@H]1CN(C)CC1CCOCC1
30	5	-7	12	C[C@H]1CN([C@@H](C)CO)C(=O)c2ccccc2-c2ccccc2CO[C@@H]1CN(C)Cc1cccc(C(=O)O)c1

Some values from the list.
In DUX4 inh difference, O=C(C[C@@H]1C[C@@H]2c3cc(NC(=O)Nc4ccccc4F)ccc3O[C@@H]2[C@H](CO)O1)NCCc1ccccc1 shows -8
In DUX4 inh difference, CC=Cc1ccc2n(c1=O)C[C@@H]1[C@@H](CO)[C@H](C(=O)N3CCc4ccccc4C3)[C@H]2N1CC (mixture of isomers) shows -3

The listing continues.
item	DUX4 inh	DUX4 inh difference	DUX4 inh control	structure
31	?	.	.	C/C=C/c1ccc([C@@H]2[C@H](CO)N(CC3CCCC3)C23CN(C(=O)COC)C3)cc1
32	5	-9	14	COc1ccc2c3c(n(C)c2c1)[C@@H](CO)NCC31CN(S(=O)(=O)c2ccc(C)cc2)C1
33	-2	-2	-0.1	Cc1noc(C)c1NC(=O)Nc1ccc2c(c1)CC(=O)N([C@@H](C)CO)C[C@H](C)[C@@H](CN(C)Cc1ccc(C(F)(F)F)cc1)O2
34	15	8	6.8	COc1ccc2c3c([nH]c2c1)[C@@H](CO)N(C(=O)C1CC1)CC31CCN(C(=O)NC(C)C)CC1
35	-2	-1	-0.7	O=C(C1CC1)N1CC2(C1)[C@@H](c1ccccc1)[C@@H](CO)N2Cc1nccs1
36	-7	-5	-2.0	OC[C@@H]1[C@@H](c2ccccc2)C2(CN(Cc3nccs3)C2)N1Cc1ccncc1
37	5	1	3.8	O=C(c1ccncc1)N1CC2(C1)[C@@H](c1ccccc1)[C@@H](CO)N2CC1CC1
38	-1	-2	0.6	CN1C(=O)c2cc(NC(=O)c3cnccn3)ccc2OC[C@H]2O[C@H](CC(=O)N[C@@H]3CCN(Cc4ccccc4)C3)CC[C@@H]21
39	-2	4	-6.2	CN1C(=O)c2cc(NC(=O)c3cccs3)ccc2OC[C@H]2O[C@@H](CC(=O)NCCN3CCCCC3)CC[C@H]21
40	-3	0	-3.6	CO[C@@H]1CC[C@@H]2CCOc3ccc(C#N)cc3C(=O)N(C)C[C@@H](C)C(=O)N(C)C[C@@H]1O2
41	-2	-6	4.3	C[C@@H]1CN([C@H](C)CO)C(=O)c2cccc(NC(=O)c3ccc(-c4nccs4)cc3)c2O[C@@H]1CN(C)C(=O)Nc1ccc(C(F)(F)F)cc1
42	7	2	4.8	COc1cccc(NC(=O)N[C@@H]2CC[C@H](CC(=O)NCc3ccccn3)O[C@H]2CO)c1
43	0	1	-1.0	COc1ccc(S(=O)(=O)Nc2ccc3c(c2)[C@H]2C[C@H](CC(=O)N(C)C)O[C@@H](CO)[C@H]2O3)cc1
44	-8	-14	5.4	COc1ccc(C#Cc2ccc([C@H]3[C@H]4CN(S(=O)(=O)c5cn(C)cn5)CCCCN4[C@H]3CO)cc2)cc1
45	8	3	4.7	O=C(Nc1ccc(F)cc1)N1C[C@H]2[C@@H](c3ccccc31)[C@@H](CO)N2C(=O)Cc1cccnc1
46	6	2	4.2	COCCNC(=O)C[C@@H]1C[C@H]2c3cc(NC(=O)CC4CC4)ccc3O[C@H]2[C@H](CO)O1
47	-2	-1	-0.6	C[C@@H]1CN([C@@H](C)CO)C(=O)c2cc(-c3ccc(F)cc3)cnc2O[C@@H]1CN(C)S(C)(=O)=O
48	1	-1	2.2	C[C@@H]1CN([C@H](C)CO)C(=O)c2cc(NC(=O)CCC(F)(F)F)ccc2O[C@H]1CN(C)S(=O)(=O)c1ccc(F)cc1
49	7	-1	7.8	COCC(=O)N1CC(=O)N2[C@@H](CO)[C@H](c3ccc(C#CC4CC4)cc3)[C@@H]2C1
50	4	-2	5.8	COC(=O)C[C@H]1C[C@@H]2c3cc(NS(C)(=O)=O)ccc3O[C@@H]2[C@H](CO)O1
51	?	.	.	COc1ccccc1NC(=O)N[C@@H]1CC[C@@H](CC(=O)N2CCC(Cc3ccccc3)CC2)O[C@H]1CO
52	-2	-3	0.9	COCC#Cc1ccc([C@H]2[C@H](CO)N3CCCCN(C(=O)CN(C)C)C[C@@H]23)cc1
53	-1	3	-3.5	CCCC#Cc1ccc([C@H]2[C@H](C#N)N(S(=O)(=O)c3cccc(F)c3)[C@H]2CO)cc1
54	2	-3	5.0	O=C([C@H]1[C@H](CO)[C@H]2Cn3c(ccc(-c4ccccc4)c3=O)[C@@H]1N2)N1CCCCC1
55	4	-2	5.8	O=C(Nc1nccs1)[C@H]1[C@H](CO)[C@H]2Cn3c(cccc3=O)[C@@H]1N2C(=O)C1CCC1
56	-3	1	-3.8	CO[C@@H]1CN(C)C(=O)c2ccc(NC(=O)C3CC3)cc2OC[C@H](C)N(Cc2cncnc2)C[C@H]1C
57	-6	-8	1.7	COc1ccc(S(=O)(=O)N2C[C@H](O)COC[C@@H]3O[C@@H](CC(=O)N[C@@H]4CCN(Cc5ccccc5)C4)CC[C@H]32)cc1
58	5	-1	6.4	CCC(=O)N1CC2(C1)[C@H](c1ccc(-c3ccccc3C)cc1)[C@@H](CO)N2C(C)=O
59	-1	-3	2.2	CN1C(=O)c2cc(NC(=O)Cc3cccs3)ccc2OC[C@@H]2O[C@H](CC(=O)NCCc3ccncc3)CC[C@@H]21
60	-6	-3	-3.0	COc1cccc(CN(C)C[C@H]2OCc3cnnn3CCCC(=O)N([C@H](C)CO)C[C@@H]2C)c1
61	-1	-2	1.6	CCNC(=O)C[C@@H]1CC[C@@H]2[C@@H](COc3ccc(NS(C)(=O)=O)cc3C(=O)N2C)O1

High-throughput results from PubChem BioAssay.
